SARS PLP yeast = blocks SARS-CoV papain-like protease in a yeast assay. S. cerevisiae expressing SARS-CoV PLpro, growth rescue; control for the full effect not named in the record. actives 0.19% (n = 330,000). Potency, µM (top dose mostly 32.9 µM), for inactives: top-dose activity, positive = growth rescue; active means well fitted rising curve with a large enough effect; inconclusive means small, poorly fitted or top-dose-only effect; inactive means no such curve, though single readings can be large or run the other way; also: 0% is about no effect; nearly all actives have a fitted effect of over 55% in size; growth read by luminescence after 48 h
LASV entry inh = Lassa virus entry inhibition; Potency, µM (doses to about 37.9 µM), inactives show at the top dose activity change, negative = inhibition, usual class: inhibitors; Lassa virus pseudotype entry inhibition, cell reporter; control for the full effect not named in the record; actives 1.2% (n = 300,000); active means well fitted inhibition curve with a large enough effect; inconclusive means small, poorly fitted or top-dose-only effect, or effect the other way; inactive means flat fitted curve, though single readings scatter; tested in HEK293 cells; also: % is scaled to controls: 0 for no effect and ±100 for the full control effect; nearly all actives have a fitted effect of over 50% in size; luciferase read-out
RE007 growth inh = less growth of the S. pombe RE007 Vpr strain. S. pombe RE007 Vpr strain, BacTiter-Glo ATP luminescence, 24 h; control for the full effect not named in the record. Potency, µM (highest dose often 92.2 µM), for inactives: at the highest dose activity change, negative = less growth. actives 0.21% (n = 360,000). AID 651644; active = well fitted falling curve with a large enough effect; inconclusive = small, poorly fitted or top-dose-only effect; inactive = no such curve, though single readings can be large or run the other way;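 also: % is scaled to controls: 0 for no effect and ±100 for the full control effect; nearly all actives have a fitted effect of over 50% in size; the assay follows cell death caused by Vpr and the record does not say whether a fall means rescue or toxicity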
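Fission yeast strain RE007, carrying one chromosomally integrated HIV-1 vpr copy, was seeded at OD 0.01 in PMG+AL medium with 23 nL pinned compound. After 24 h at 30 °C and 99% humidity, viability was read by BacTiter-Glo luminescence.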
NS1 inh = influenza NS1 inhibition. S. cerevisiae slowed by influenza A NS1, growth recovery by OD600. Potency, µM (titrated, usually from 46.1 µM), without a hit: at the highest dose activity, positive = more growth. AID 2326. actives 0.4% (n = 270,000); active means well fitted rising curve with a large enough effect; inconclusive means small, poorly fitted or top-dose-only effect; inactive means no such curve, though single readings can be large or run the other way; also: nearly all actives have a fitted effect of over 50% in size
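Recovery from NS1-induced slow growth read by OD600 in budding yeast switched to galactose assay medium (pH 6.0, -URA) at 1:100 dilution. Compound 23 nl per well; the matching strain lacking NS1 serves as control.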
Cruzain inh Det = cruzain (T. cruzi) inhibition with detergent; P25779; purified cruzain, Z-FR-AMC fluorescence, 0.01% Triton; Potency, µM, for the others: max response, negative = inhibition, most hits filed as inhibitors; actives 0.43% (n = 200,000); AID 1478;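 also: plate controls were neutral wells for no effect and buffer without enzyme for full effect; nearly all actives have a fitted effect of over 40% in size; top concentration of the series not given in the record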
Target sequence (P25779 123-467 limits assumed): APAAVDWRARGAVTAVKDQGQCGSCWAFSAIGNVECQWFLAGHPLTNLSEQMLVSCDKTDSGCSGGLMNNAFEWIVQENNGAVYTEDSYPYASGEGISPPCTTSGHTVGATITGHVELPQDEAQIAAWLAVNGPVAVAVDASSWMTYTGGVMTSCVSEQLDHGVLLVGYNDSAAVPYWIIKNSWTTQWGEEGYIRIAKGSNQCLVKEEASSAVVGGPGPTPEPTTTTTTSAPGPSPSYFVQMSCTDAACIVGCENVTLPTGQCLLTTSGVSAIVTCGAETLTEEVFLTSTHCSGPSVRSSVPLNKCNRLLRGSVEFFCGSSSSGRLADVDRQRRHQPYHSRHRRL
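Cysteine protease activity tested under reducing, mildly acidic conditions (100 mM sodium acetate pH 5.5, 5 mM DTT) plus 0.01% Triton X-100. Cruzain 1.5 nM; substrate Z-FR-AMC 2 uM; 15 min compound preincubation at room temperature.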
MARV entry inh = blocks Marburg virus binding to or entry into cells | Marburg virus pseudotyped entry inhibition, cell reporter; control for the full effect not named in the record; about a third of the inactives were read at about 46 µM | Potency, µM (series often up to 37.8 µM), without a hit: top-dose activity change, negative = inhibition, usual class: inhibitors | actives 1.8% (n = 300,000); active = well fitted inhibition curve with a large enough effect; inconclusive = small, poorly fitted or top-dose-only effect, or effect the other way; inactive = flat fitted curve, though single readings scatter; tested in HEK293 cells; about a fifth of its hits are not listed in these tables; also: % is scaled to controls: 0 for no effect and ±100 for the full control effect; luciferase read-out
2A StopGo = FMDV 2A StopGo reporter, luciferase signal | human cells with a luciferase reporter of 2A StopGo recoding; control for the full effect not named in the record | Potency, µM (titrated, usually from 57.9 µM), for the others: at the top dose signal change, negative = less light | actives 1.2% (n = 410,000); active = well fitted falling curve with a large enough effect; inconclusive = small, poorly fitted or top-dose-only effect; inactive = no such curve, though single readings can be large or run the other way; tested in HEK293T cells; also: % is scaled to controls: 0 for no effect and ±100 for the full control effect; nearly all actives have a fitted effect of over 45% in size; luciferase light after 4 h
Cruzain noTriton = blocks cruzain activity in detergent-free assay | AID 1476 | P25779 | actives 2.3% (n = 200,000) | purified cruzain, Z-FR-AMC fluorescence, no detergent | Potency, µM, without a hit: max response, negative = inhibition, actives largely listed as inhibitors;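 also: plate controls were enzyme without inhibitor for no effect and buffer without enzyme for full effect; nearly all actives have a fitted effect of over 40% in size; top concentration of the series not given in the record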
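Detergent-free condition (0.00005% Triton X-100) in acetate buffer pH 5.5 with DTT. 1.5 nM enzyme and compound were pre-mixed 15 min, then 2 uM Z-FR-AMC substrate added; reaction progress from fluorescence change between first and third reads (60 s).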
The depositor's hits bear a star; ? = inconclusive; . = not tested or not shown; & = joins results of further samples; [ ] = dose if it differs, or a comment. Unless noted, calls follow the shape of the dose curve; as a rule, active = well fitted curve in the direction sought with a large enough effect; inconclusive = small, poorly fitted or top-dose-only effect, or another doubt; inactive = no such curve, though single readings can be large; an effect the other way counts as inactive or inconclusive. Potency is read from the fitted curve at half-maximal effect. Random draw from the library; overall some 4.6% were active at least once.

Value order – SARS PLP yeast | LASV entry inh | RE007 growth inh | NS1 inh | Cruzain inh Det | MARV entry inh | 2A StopGo | Cruzain noTriton
> c1ccc(-c2nc(-c3ccco3)n3ccccc23)cc1
  -91% | -6% | -27% | ? | -28% | ? | ? | ?
> COc1ccccc1CNCC(=O)Nc1cc(S(=O)(=O)N2CCCCCC2)ccc1Cl
  -2% | -23% | 1% | -2% | . | ? | ? | .
> CCOc1ccccc1N1CC(c2nc3ccccc3n2CCOc2ccc(OC)cc2)CC1=O (stereo not drawn)
  . | -20%[46.1 µM] | . | . | -12% | -17%[46.1 µM] | -12% | ?
> CCN(C(=O)CN1C(=O)c2ccccc2S1(=O)=O)C1CCCCC1
  2% | 2% | -2% | . | . | 5%[46.1 µM] | 1% | .
> Cc1ccnc(SCC(=O)Nc2c(C)n(C)n(-c3ccccc3)c2=O)n1
  -6% | ? | -6% | 0% | -2.8% | 30% | -14% | -19%
> O=C(NNc1ccccc1)c1ccc(Cl)c(Cl)c1
  . | ? | 109% | . | . | 7.1µM* | 18% | .
> CCN1CCN(c2ccc([N+](=O)[O-])c(Sc3nc4ccccc4[nH]3)c2)CC1
  -2% | -4% | 0% | 0% | -13% | ? | -14% | -10%
> CN(Cc1ccccc1)c1ncnc2c1cnn2-c1ccccc1
  -13% | ? | ? | -63% | -6.1% | -6% | -19% | -1%
> O=C(CCN1N=C(c2ccccc2)CCC1=O)NCC1CCCO1 (stereo not drawn)
  25% | . | 10% | 7% | . | . | -14% | .
> O=C(Nc1ccc(Cl)cc1)c1cc(S(=O)(=O)N2CCc3ccccc32)ccc1F
  . | -20%[46.1 µM] | . | . | -4.1% | . | -17% | ?
> Cc1ccc(C2=CC(c3ccccc3F)n3c(nc4ccccc43)N2)cc1C (stereo not drawn)
  . | 0%[46.1 µM] | . | . | -5.5% | . | -17% | -14%
> NNC(=O)COc1ccc(C(F)(F)F)cc1
  -1% | . | -2% | -2% | . | . | 2% | .
> CCOC(=O)c1[nH]c2ccc(OC)cc2c1NC(=O)c1cccc(OC)c1
  -5% | ? | -1% | -10% | -3.7% | ? | -24% | ?
> Cc1oc(-c2cccc(Br)c2)nc1CN1CCC(C(=O)NCCc2ccc(Cl)cc2)CC1
  . | ? | . | . | 1.0% | . | -7% | -2%
> O=C(CN1CCN(C2CCCCC2)CC1)Nc1ccccc1-c1ccccc1
  4% | -7% | 2% | 2% | 9.2% | ? | . | 6%
> COc1ccc(-c2cc(C(=O)OCC(=O)c3c(N)n(C)c(=O)n(C)c3=O)c3ccccc3n2)cc1
  0% | 12%[46.1 µM] | -13% | . | . | -4%[46.1 µM] | -14% | .
> CC(Cc1ccsc1)NC(=O)CCc1nnc(COc2ccccc2)o1 (stereo not drawn)
  0% | ? | -5% | -3% | . | 9%[46.1 µM] | 15% | .
> CCN1/C(=C/c2ccc3cc(C)ccc3[n+]2C)Sc2ccc3sccc3c21
  -6% | . | -9% | -17% | . | . | -19% | .
> COc1ccc2nc(SCC(=O)C(C)(C)C)[nH]c2c1
  1% | . | -12% | 0% | . | . | 0% | .
> CCCc1cc(=O)[nH]c(SCC(=O)NCCCC(=O)OCC)n1
  16% | 3% | 4% | ? | 2.9% | 20% | 22% | -8%
> COc1ccccc1N1CCN(C(=O)CNS(=O)(=O)c2ccc(Br)s2)CC1
  1% | -10% | -21% | -11% | -3.5% | ? | -26%&-16% | ?
> COc1cc(CCN2C(=O)N[C@@H](c3cccc(C(F)(F)F)c3)C(C(C)=O)=C2C)cc(OC)c1OC
  6% | ? | . | -8% | 2.7%&-2.9% | -11%&-11%&-11% | . | -4%&28%
> CC(=O)c1ccc(NC(=O)CCn2c(=O)oc3ccccc32)cc1
  11% | 13% | 4% | -12% | -0.1% | 0% | 20% | 6%
> CC1CCc2c(sc3nnn(CCCCOc4ccc(Cl)cc4)c(=O)c23)C1 (stereo not drawn)
  . | ? | . | . | 2.8% | 8%[46.1 µM] | 0% | -12%
> CCN1CCN(C(=O)Cn2c(=O)sc3ccccc32)CC1
  -5% | . | -6% | -5% | 1.7% | . | 4% | 9%
> Nc1nc(-c2ccccc2Br)cs1
  2% | ? | -17% | -14% | -0.7% | 18% | 32%[activator] | -7%
> Cc1ccc(OCCNC(=O)CCc2ccccc2)cc1C
  . | -3% | 4% | . | . | -6%[46.1 µM] | -9% | .
> O=c1c2ccccc2ncn1CCCCOc1ccc(Br)cc1
  0% | . | -21% | 0% | . | . | -9% | .
> COc1ccc(CCN2C(=O)NC(NC(=O)C(C)(C)C)(C(F)(F)F)C2=O)cc1OC (stereo not drawn)
  18% | 0% | 6% | -5% | -0.9% | -2% | -11% | 5%
> O=C(NCc1ccco1)c1ccccc1NS(=O)(=O)c1ccc(Br)s1
  -27% | -5% | -6% | -160% | -28% | -13% | -18% | ?

Additional results follow.
Value order – SARS PLP yeast | LASV entry inh | RE007 growth inh | NS1 inh | Cruzain inh Det | MARV entry inh | 2A StopGo | Cruzain noTriton
> Cc1ccc(S(=O)(=O)NC(C)(C)C)cc1C(=O)OC(C)C(=O)NC1CC1 (stereo not drawn)
  -1% | 3% | 9% | . | . | 26% | 20% | .
> O=C(O)c1ccccc1CSc1nnc2c(n1)[nH]c1ccccc12
  -1% | -6% | ? | 5% | . | 0% | 0% | .
> Cc1ccc(NS(=O)(=O)c2ccc(NC(=O)CSc3ccc(Cl)cc3)cc2)c(C)c1
  -4% | -26% | 13% | 5% | -5.3% | ? | 0% | -12%
> COCCNC(=O)c1cccc(OC2CCN(Cc3cccc(SC)c3)CC2)c1
  3% | -3% | 2% | 14% | . | ? | ? | .
> CC(=O)c1cccc(NC(=O)COc2ccc3oc(=O)cc(C)c3c2)c1
  -2% | . | -17% | -15% | . | . | ? | .
> C/C(=C\C(=O)C(F)(F)F)Nc1ccc(C)cc1
  17% | -23% | -16% | 6% | -2.6% | ? | -1% | 1%
> CC(=O)c1cccc(NC(=O)c2ccoc2C)c1
  -1% | 20%[46.1 µM] | 4% | -6% | . | ? | 6% | .
> Cc1[nH]nc2c1C(=O)CCC2
  2% | -1% | -9% | -45% | 0.8% | -8% | 17% | 7%
> CC(C)CN(C(=O)COC(=O)Cc1ccc(Cl)cc1)c1c(N)n(Cc2ccccc2)c(=O)[nH]c1=O
  -9% | ? | -9% | . | . | -5% | -2% | .
> COC(=O)C1=C(C(=O)OC)C2(OC1c1ccccc1C)C(=O)c1ccccc1C2=O (stereo not drawn)
  ? | 5% | -1% | 13% | -7.4% | -6% | -16% | 18%
> Cc1sc2ncn(CC(=O)NCC(=O)N3CCN(c4ccccc4F)CC3)c(=O)c2c1C
  -2% | 0%[46.1 µM] | 9% | -1% | . | 27%[46.1 µM] | -15% | .
> COc1ccc(-n2ncc(C(=O)NCCc3ccsc3)c2C2CCN(C(=O)OC(C)(C)C)CC2)cc1
  . | ? | . | . | -4.4% | . | 11% | 8%
> COc1cccc(C(=O)Nc2cccc(-c3ccc(N4CCOCC4)nn3)c2)c1
  -7% | -12% | -9% | . | . | -2% | 33%[activator] | .
> CSc1nccc(NC(=O)c2ccc(C(C)(C)C)cc2)n1
  -4% | . | -22% | -43% | . | . | -12% | .
> COc1ccccc1CNC(=O)c1cn(C)c2ccc(S(=O)(=O)N3CCCC3)cc2c1=O
  -5% | -10% | 15% | . | . | ? | -13% | .
> COc1ccc(N=Nc2c(N)nn(C)c2N)cc1
  . | 7%[46.1 µM] | 6% | . | . | ? | 31%[activator] | .
> O=S(=O)(N/N=C/c1ccc2c(c1)OCO2)c1ccc(Br)cc1
  -1% | . | -3% | 7% | . | . | 20% | .
> COc1ccc(Nc2nc(C)nc3sc4c(c23)CCC4)cc1O
  -1% | ? | 1% | . | . | ? | -19% | .
> Cc1cc(OCC(=O)Nc2ncn[nH]2)ccc1Cl
  2% | ? | 8% | . | -4.4% | ? | 45%&30%[activator] | -6%
> O=C(CSc1ncccc1-c1nc2ccccc2[nH]1)NC1CC1
  6% | 13% | -3% | 3% | -1.9% | 4% | 33%[activator] | -15%
> CCOC(=O)NC(=O)CSc1nnc(C2CC2)n1Cc1ccco1
  1% | -2%[46.1 µM] | 12% | . | . | -2%[46.1 µM] | 4% | .
> N=c1c2c3c(sc2ncn1Nc1ccccc1)CCC3
  0% | . | -24% | -5% | . | . | -15% | .
> Cc1ccc(C2=[N+]([O-])C3(CCCCC/C3=N\O)N(O)C2(C)C)o1 (stereo not drawn)
  -2% | 14% | 5% | 4% | -3.0% | 20% | -17% | 6%
> CC1CN(C(=S)Nc2ccccc2C(F)(F)F)CC(C)O1 (stereo not drawn)
  -4% | -4% | 8% | -9% | . | -18% | -10% | .
> Cc1nn(C)c(C)c1NC(=O)COc1ccc(Cl)cc1Br
  0% | ? | 0% | . | . | ? | ? | .
> CC(=O)Oc1cccc(N2C(=O)c3ccccc3C2=O)c1
  6% | -2% | 3% | 18% | -3.4% | 3% | -18% | -1%
> Cn1cccc1C(=O)NCC1CCCCC1
  7% | . | -2% | 2% | . | . | 24% | .
> Cc1cccc(NC(=O)CN2c3ccccc3S(=O)(=O)c3ccccc32)c1C
  . | 16%[46.1 µM] | . | . | -5.2% | . | -16% | -18%
> Cc1cc(Cl)ccc1-n1c(CCC(=O)O)ccc1-c1cccs1
  . | 5%[46.1 µM] | . | . | -26% | 22%[46.1 µM] | -9% | -2%
> COc1ccc(C(=O)NCCc2nnc3ccc(SCC(=O)NCc4ccccc4)nn23)cc1
  -5% | -17% | 9% | 8% | . | -18% | -21% | .
> Cc1ccc(NC(=S)NN(C)c2cc(C)nc(C)n2)cc1
  10% | 4% | 3% | 3% | 3.0% | 3% | -5% | -11%
> COCCN(C(=S)Nc1cccc(OC)c1)C1CCN(C(C)=O)CC1
  -22% | -8% | -7% | 4% | 0.2% | -6% | -5% | 9%

Screening data from PubChem.
